GIV-Gai inh – blocks GIV peptide binding to rat Galpha-i3. P08753. Galpha-i3/FITC-GIV peptide fluorescence polarization, 90 min; hits give low values; scaled: aluminum fluoride 0%, vehicle 100%. percent of control (FP), % (test concentration not listed). 210,000 tested, 0.42% active;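 active means replicate mean at 85% of control or lower, very high polarization wells dropped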;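 further: wells of about 15 µL received 100 nL stock; the first replicate is given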
Target sequence (P08753 whole entry, looked up): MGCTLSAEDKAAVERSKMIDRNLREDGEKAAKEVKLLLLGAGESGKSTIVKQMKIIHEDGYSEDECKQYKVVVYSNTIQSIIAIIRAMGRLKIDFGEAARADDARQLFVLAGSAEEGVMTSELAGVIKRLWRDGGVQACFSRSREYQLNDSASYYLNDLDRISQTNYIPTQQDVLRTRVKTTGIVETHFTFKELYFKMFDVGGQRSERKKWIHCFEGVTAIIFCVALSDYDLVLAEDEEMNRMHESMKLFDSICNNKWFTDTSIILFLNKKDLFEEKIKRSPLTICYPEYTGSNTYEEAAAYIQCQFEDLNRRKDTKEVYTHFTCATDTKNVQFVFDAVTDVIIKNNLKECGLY
Starred values were filed as active, the others as inactive.

SMILES	GIV-Gai inh
Cc1ccccc1NC(=O)N(C)CCc1noc(C(=O)NCc2ccc(Cl)cc2)n1	95
CC1(C)CC(CC(=O)OCCCN2CCCCC2)(c2ccccc2)CCO1 (configuration not stated)	118
CC(=O)Nc1n[nH]c(S(C)(=O)=O)n1	99
CC(=O)C1=NN(c2ccc(C)cc2)C(c2c[nH]c3ccccc23)N1c1ccc(N2CCCCC2)c(Cl)c1 (configuration not stated)	106
CCn1c(SCc2nc(N)nc(N3CCCCC3)n2)nc2c1c(=O)n(C)c(=O)n2C	109
COc1ccc(Br)cc1C1CC(=O)Nc2c1cnn2-c1nc2ccccc2s1 (configuration not stated)	101
O=C(NCc1ccccc1Cl)c1ccc(-c2cnc(NC3CCCCC3)nc2)cc1	99
CCOC(=O)N1CCC(NC(=O)CSc2nc3ccccc3n2S(=O)(=O)c2ccc(Br)cc2)CC1	116

(cont.)
SMILES	GIV-Gai inh
CCCS(=O)(=O)c1c(S(=O)(=O)CCC)c2ccccn2c1C(=O)N/N=C/c1ccc([N+](=O)[O-])cc1	107
Cc1ccc(N=C(NOCc2ccc([N+](=O)[O-])cc2)c2nonc2N)cc1	106
O=C(CCc1nc(-c2ccc(S(=O)(=O)N3CCCC3)cc2)no1)N1CCCC1	107
CCCNC(=O)C1CCN(C(=O)c2cccnc2-c2ccccc2C)CC1	107
Cc1ccc(-n2c(-c3ccccc3)c[n+]3c2CCCCC3)cc1	108
O=C(Nc1cccc(Cl)c1)N1CCN(Cc2nc3cc(C(=O)N4CCCCC4)ccc3o2)CC1	99
O=C1NC(c2ccc3c(c2)OCO3)Nc2sc3c(c21)CCCC3 (configuration not stated)	104
Cc1nnc2ccc(-n3ncc4c3NC(=O)CC4c3ccc(OCc4ccccc4F)cc3)nn12 (configuration not stated)	103

Next section
SMILES	GIV-Gai inh
Brc1ccc(-c2nnc3ccc4ccccc4n23)cc1	103
C=CCOc1ccc(C2CC(=O)Nc3c2c(C)nn3-c2nc3ccccc3s2)cc1OCC (configuration not stated)	106
CCc1ccc(S(=O)(=O)Nc2ccc3c(c2)c2c(n3S(=O)(=O)c3ccc(CC)cc3)CC(C)(C)CC2=O)cc1	113
CCC(C(=O)NCC(=O)NCc1cscn1)c1ccccc1 (configuration not stated)	109
Cc1nc(N2CCN(c3ccccn3)CC2)c2c3c(sc2n1)CCCC3	117
CC(C)Oc1ccc(CNS(=O)(=O)c2cc(-c3nc(C(C)C)cs3)cs2)cc1	98
CCn1nnc2cc(-c3noc(C(C)NS(=O)(=O)c4ccc(C)cc4)n3)ccc21 (configuration not stated)	98
N#Cc1c(-c2ccc(Cl)cc2)cc(-c2cccs2)nc1SCC(N)=O	105

Continuation.
SMILES	GIV-Gai inh
COC(=O)C1=C(C(=O)OC)SC(=C2C(=S)C(C)(C)N(C(=O)c3ccc(Cl)cc3Cl)c3ccc(C)cc32)S1	100
CCOc1ccc(NC(=O)NCCC2CCN(C(=O)Nc3cccc(Cl)c3)CC2)cc1	108
CC(=O)Nc1ccc(-c2noc(C3CCCN(C(=O)Cc4ccccc4C)C3)n2)cc1 (configuration not stated)	103
O=C1CN(Cc2ccc(F)cc2Cl)S(=O)(=O)c2ccccc2N1Cc1ccc(Cl)cc1	103
CCOC(=O)C1=NN(c2ccccc2)C2(S1)SC(c1ccccc1C)(c1ccccc1C)c1ccccc12 (configuration not stated)	109
Cc1ccc2c(c1Br)C1(C(=O)N2)C(C#N)=C(N)Oc2n[nH]c(-c3ccncc3)c21 (configuration not stated)	100
CCN(CCCNC(=O)c1ccc2c(=O)n(Cc3ccc4c(c3)OCO4)c(=S)[nH]c2c1)c1ccccc1	108
Cc1ccc(S(=O)(=O)N2CCC3(CC2)NCCN=C3NCc2ccc(F)cc2)cc1	99

Later entries.
SMILES	GIV-Gai inh
Cc1nn2c(SCC(=O)Nc3cccc(F)c3)nnc2[nH]c1=O	101
O=C1NCCCC1N1CCCC1 (configuration not stated)	98
Cn1c(N2CCCC(C(=O)N3CCOCC3)C2)cc(=O)n(C)c1=O (configuration not stated)	111
CCc1c(C)c(C#N)c2nc3ccccc3n2c1Nc1ccc(OC)cc1	113
Cc1ccc(C(=O)N/C(=C\c2ccco2)C(=O)NCCCn2ccnc2)cc1	111
Cc1oc(-c2ccccc2)nc1Cn1nnc(-c2nc(-c3ccc(Cl)cc3)no2)c1C	109
Clc1ccc(Nc2nc3nonc3nc2NCCc2ccccc2)cc1	108
CCCn1c(SCc2nc(-c3ccc(CC)cc3)no2)nc2cc3c(cc2c1=O)OCO3	102

Next section
SMILES	GIV-Gai inh
COC(=O)C(NC(=O)c1cccc(Cl)c1)(Nc1sc2c(c1C#N)CCC(C)C2)C(F)(F)F (configuration not stated)	112
CCOc1ccc(N(C)S(=O)(=O)c2ccc3[nH]cc(C(=O)N4CCN(Cc5ccccc5)CC4)c(=O)c3c2)cc1	100
CCn1c(CCc2ccc(NS(=O)(=O)c3ccc(Cl)cc3)cc2)nc2ccccc21	96
Cc1nc2cc(-c3noc(-c4cc(F)ccc4F)n3)ccc2o1	99
Cc1ccc(S(=O)(=O)Nc2ccc3oc4c(c3c2)C(=O)CCC4)cc1	110
COCCn1c(SCc2nc(-c3ccccc3)no2)nc2cc3c(cc2c1=O)OCO3	108
Cn1c2c(c(=O)n(C)c1=O)C(c1cc([N+](=O)[O-])c(N3CCOCC3)cc1N1CCOCC1)O2 (configuration not stated)	106
O=S1(=O)N=CN(Cc2ccc(F)cc2)c2ccccc21	106

(continued)
SMILES	GIV-Gai inh
COC(=O)c1ccc2c(=O)n(Nc3nc(C)cc(C)n3)c(SCc3cc(C(C)=O)ccc3OC)nc2c1	102
O=C1/C(=C/c2ccc(-c3ccc(Br)cc3)o2)C=C(c2ccccc2)N1c1ccccc1	110
O=C(Nc1ccc(-c2nc(-c3cccc(Br)c3)co2)cc1)Nc1ccc2c(c1)OCCO2	108
COc1cc(-c2nc(C=Nc3cc(Cl)ccc3C)c(O)o2)cc(OC)c1OC	106
CC(=O)C1=NN(c2ccc(C)cc2)C2(S1)SC(c1ccccc1)(c1ccccc1)c1ccccc12 (configuration not stated)	107
CCOC(=O)c1sc2nc(SCC(=O)NCc3ccco3)n(CCc3ccccc3)c(=O)c2c1C	110
CCOc1ccc(CN2CCN(CC(O)Cn3c4ccccc4c4ccccc43)CC2)cc1 (configuration not stated)	102
Cc1sc2c(c1C)c(=O)n(-c1ccccc1)c1n[nH]c(=S)n21	118

More entries
SMILES	GIV-Gai inh
CCC1CCCCN1Cc1ccn(C)c(=O)c1 (configuration not stated)	104
COc1cccc(C2=NN3C(C2)c2cc(Cl)ccc2OC3c2cc(OC)ccc2OC)c1 (configuration not stated)	121
CCOC(=O)C1=C(C)N=c2s/c(=C/c3cc([N+](=O)[O-])ccc3O)c(=O)n2C1c1ccc(SC)cc1 (configuration not stated)	26*
CC(=O)C1=NN(c2ccc(Cl)cc2)C(c2ccc3c(c2)OCO3)N1C(C)(C)C (configuration not stated)	112
CCOC(=O)c1c(C)oc2ccc(N(C(=O)c3ccccc3)S(=O)(=O)c3ccc(C)cc3)cc12	105
CCCS(=O)(=O)c1c(S(=O)(=O)CCC)c2c(N)cccn2c1C(=O)c1ccc(OC)cc1	129
CCCS(=O)(=O)c1c(S(=O)(=O)CCC)c2c(C)cc(C)cn2c1C(=O)c1ccc(CC)cc1	104
COc1cccc(NC(=O)CSc2nc3c(sc(=S)n3-c3cc(Cl)ccc3OC)c3nc4ccccc4n23)c1	114

Continued, starting with the last 2 of the part before.
SMILES	GIV-Gai inh
CCCS(=O)(=O)c1c(S(=O)(=O)CCC)c2c(C)cc(C)cn2c1C(=O)c1ccc(CC)cc1	104
COc1cccc(NC(=O)CSc2nc3c(sc(=S)n3-c3cc(Cl)ccc3OC)c3nc4ccccc4n23)c1	114
O=C(NCc1ccco1)/C(=C/c1cn(-c2ccccc2)nc1-c1ccccc1)NC(=O)c1ccc(Cl)cc1Cl	107
CC1=C(C)CS(=Nc2cccc([N+](=O)[O-])c2)N(S(=O)(=O)c2ccccc2)C1 (configuration not stated)	120
CCOC(=O)c1sc(NC(=O)C(CC)Sc2nnc3c4ccccc4n(CC)c3n2)nc1C (configuration not stated)	106
COc1ccc(Oc2c(C(F)(F)F)oc3c(CN4CCCC4)c(O)ccc3c2=O)cc1	116
O=c1nc2n(-c3ccc(Cl)c(Cl)c3)c3cccc(Cl)c3cc-2c(=O)[nH]1	108
Cc1nnc(-c2cc(S(=O)(=O)Nc3ccc(S(N)(=O)=O)cc3)c(C)n2C)o1	98
CC(=O)OC1CCN(C(=O)NC(C)(C)C)CC1	98
Cc1ccc(C2CC(=O)Nc3c2ccc2ccccc32)cc1 (configuration not stated)	109

(list continues)
SMILES	GIV-Gai inh
CC(=O)O/N=C(\C(=N/OC(C)=O)c1ccccc1)c1ccccc1	121
O=C(NCc1ccco1)c1ccc2c(=O)n(CC3CCCO3)c(SCc3csc4ccc(Cl)cc34)nc2c1 (configuration not stated)	119
O=C1C2C(C(=O)N1Cc1cccnc1)C1(Br)c3ccccc3C2(Br)c2ccccc21 (configuration not stated)	99
O=C(CN1C(=O)c2ccccc2C1=O)NC1CCCCNC1=O (configuration not stated)	98
N#CC1=C(N)OC(c2ccccc2)=C(C(=O)c2ccccc2)C1c1ccccc1Cl (configuration not stated)	108
Cc1ccc(C)c(N2CCN(S(=O)(=O)c3cccc4nsnc34)CC2)c1	105
CCCc1cc(C2CCCN2Cc2ccccc2Br)no1 (configuration not stated)	106
CS(=O)(=O)N1CCN(c2ccc(NCc3ccccc3)nn2)CC1	100

Continuation.
SMILES	GIV-Gai inh
CCOC(=O)C1C(c2ccc(Br)cc2)NC(=S)NC1(O)C(F)(F)F (configuration not stated)	106
CCOc1ccc(N=CC23c4ccccc4C(c4ccccc42)C2C(=O)N(c4ccc(OCC)cc4)C(=O)C23)cc1 (configuration not stated)	103
Cc1cccc(NC(=O)c2ccc(N3CC4CC(C3)c3cccc(=O)n3C4)c(NC(=O)c3ccc(Br)o3)c2)n1 (configuration not stated)	103
O=C(CCc1nc(CSc2nnc(-c3ccncc3)o2)no1)Nc1ccc(F)c(Cl)c1	107
CC(=O)N1CCN(c2nc(C)cc(N3CCCCC3)n2)CC1	103
CC(=O)N1c2ccccc2NC2=C(C(=O)CC(c3cccs3)C2)C1c1ccc(C(F)(F)F)cc1 (configuration not stated)	103
CCCCN(C)c1ccc2nnc(CCc3nc(-c4ccc(C)cc4)no3)n2n1	102
CC1CC(C)CN(C(=O)C2CCC(Cn3c(=S)[nH]c4ccccc4c3=O)CC2)C1 (configuration not stated)	110

Going on with the list.
SMILES	GIV-Gai inh
COc1ccc(N2C(=O)CC(c3ccccc3)C3=C2CC(C)(C)CC3=O)cc1 (configuration not stated)	110
O=C1CC(c2cc(Br)ccc2F)c2cnn(-c3ccccc3)c2N1 (configuration not stated)	104
C=CCn1c(SCC(=O)NCc2ccccc2Cl)nc2cc(C(=O)NCc3ccco3)ccc2c1=O	112
O=C(c1ccccc1O)N1N=C(C(F)(F)F)CC1(O)c1ccc(F)cc1 (configuration not stated)	103
Cc1cc2c(cc1C)C(c1ccc(F)c(Br)c1)CC(=O)N2 (configuration not stated)	107
O=c1c2sccc2n(Cc2nc(-c3ccccc3)no2)c(=O)n1CCc1ccccc1	103
CCOc1ccc(C(=O)N2CCN(Cc3noc4ccccc34)CC2)cc1	112
CC(C)Cn1c(=O)c(-c2ccc(C(=O)NC3CC3)cc2)nc2ccccc21	97

Next structures.
SMILES	GIV-Gai inh
O=C(O)CCN1C(=O)C(=O)/C(=C(/O)c2ccccc2)C1c1cccc(F)c1 (configuration not stated)	105
N#CC1=C(N)Oc2n[nH]c(-c3ccc(Cl)s3)c2C12C(=O)Nc1ccccc12 (configuration not stated)	110
Cc1ccc(C(=O)Oc2cccc(C3C4=C(Nc5c3c(=O)[nH]c(=O)n5C)c3ccccc3C4=O)c2)cc1 (configuration not stated)	110
O=C(CSc1nc2ccccc2c(=O)n1CC1CCC(C(=O)NCc2ccccc2Cl)CC1)NCC1CCCO1 (configuration not stated)	111
COc1cc(C2NC(=O)NC(C)=C2C(=O)OCc2ccc(C)cc2)cc(OC)c1O (configuration not stated)	105
COc1ccc(S(=O)(=O)NC2CCN(C(=O)c3ccccc3)CC2)cc1	98
CCOC(=O)c1c(CN2CCOCC2)n(C2CCCCC2)c2cc(Br)c(O)cc12	117
CC1CCN(C(=O)CSc2nnc3c(n2)[nH]c2ccccc23)C(C)C1 (configuration not stated)	108

Additional results.
SMILES	GIV-Gai inh
COC(=O)Cc1nc(N2CCN(c3cccc(Cl)c3)CC2)c2c(C)c(C)sc2n1	100
Cc1c(C(=O)Nc2ccc3c(c2)OCO3)sc2ncnc(N3CCc4ccccc4C3)c12	110
COc1ccccc1Cn1c(=S)[nH]c2cc(C(=O)N3CCN(c4ccc(F)cc4)CC3)ccc2c1=O	101
CCc1cccc(C)c1-n1nnnc1C(C)(C)NC	109
COc1cc2c(cc1OC)C(c1ccc(Cl)cc1)OC1=C2C(=O)c2ccccc21 (configuration not stated)	105
CCc1nnc2c(Oc3cccc(NS(=O)(=O)c4ccc(F)c(C)c4)c3)nc3ccccc3n12	107
O=S(=O)(C1CC1)N1CCc2[nH]ncc2C1	101

Molecules above with a furan ring, fused or not (9):
SMILES	GIV-Gai inh
Cc1ccc(C(=O)N/C(=C\c2ccco2)C(=O)NCCCn2ccnc2)cc1	111
Cc1ccc(S(=O)(=O)Nc2ccc3oc4c(c3c2)C(=O)CCC4)cc1	110
O=C1/C(=C/c2ccc(-c3ccc(Br)cc3)o2)C=C(c2ccccc2)N1c1ccccc1	110
CCOC(=O)c1sc2nc(SCC(=O)NCc3ccco3)n(CCc3ccccc3)c(=O)c2c1C	110
CCOC(=O)c1c(C)oc2ccc(N(C(=O)c3ccccc3)S(=O)(=O)c3ccc(C)cc3)cc12	105
O=C(NCc1ccco1)/C(=C/c1cn(-c2ccccc2)nc1-c1ccccc1)NC(=O)c1ccc(Cl)cc1Cl	107
O=C(NCc1ccco1)c1ccc2c(=O)n(CC3CCCO3)c(SCc3csc4ccc(Cl)cc34)nc2c1 (configuration not stated)	119
Cc1cccc(NC(=O)c2ccc(N3CC4CC(C3)c3cccc(=O)n3C4)c(NC(=O)c3ccc(Br)o3)c2)n1 (configuration not stated)	103
C=CCn1c(SCC(=O)NCc2ccccc2Cl)nc2cc(C(=O)NCc3ccco3)ccc2c1=O	112

Assay outcomes deposited in PubChem by ICCB-Longwood Screening Facility, Harvard Medical School.

This is a subset; the hit share may differ from the screen's.
